Assay outcomes: PubChem, several laboratories
Mtb betalactam – beta-lactam sensitization of Mtb H37Rv, H37Rv. M. tuberculosis H37Rv growth with meropenem, percent inhibition; hits of this screen are not shown here. inhibition, % at 25 µM. 330,000 compounds, 0.27% hits. AID 434955, 2010;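 active = about 74% or more and at least 40 points above the plate without the antibiotic, then above 30% in a dose series; inconclusive = first-round hits that could not be retested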;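 also: growth measured after seven days incubation then overnight dye step; 0% = bacteria only wells and 100% = bacteria with antibiotic; twin plates without the antibiotic show which effects depend on it; some results filed as inactive read as strong as hits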
YopH PTP inh – YopH tyrosine phosphatase inhibitors, primary screen, biochemical, fluorescence Ex485/Em525; YopH tyrosine phosphatase [Yersinia enterocolitica]; inhibition, %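 (about 10 µM by stock and volumes)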; 140,000 compounds, 0.16% hits;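 active = inhibition of 50% or more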;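 also: controls were vehicle for no effect and minimum signal wells for full effect; inactives centre near -20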
Arbovirus anti – antivirals against arbovirus infection, primary screen, cell-based, full library, 10K replicate subset. arbovirus infection cell-based antiviral screen. inhibition, % at 10 µM. 200,000 compounds, 0.37% hits. AID 1251, 2008;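 active = inhibition from about 30%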;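 also: bluetongue infection of BSR cells; cell survival read as ATP light after 72 h; 0% = infected wells without compound and 100% = uninfected wells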
RecA intein inh – Mtb RecA intein splicing inhibitors, primary screen, biochemical, fluorescence, HTS. inhibition, %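 (about 9 µM by stock and volumes)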. cell-free RecA intein splicing. 290,000 compounds, 0.75% hits; in the data active = inhibition above about 30%; inconclusive = no clear call, values can overlap the other calls;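 also: 0% = vehicle wells and 100% = reference inhibitor control wells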
Target sequence (P9WHJ3 whole entry, looked up): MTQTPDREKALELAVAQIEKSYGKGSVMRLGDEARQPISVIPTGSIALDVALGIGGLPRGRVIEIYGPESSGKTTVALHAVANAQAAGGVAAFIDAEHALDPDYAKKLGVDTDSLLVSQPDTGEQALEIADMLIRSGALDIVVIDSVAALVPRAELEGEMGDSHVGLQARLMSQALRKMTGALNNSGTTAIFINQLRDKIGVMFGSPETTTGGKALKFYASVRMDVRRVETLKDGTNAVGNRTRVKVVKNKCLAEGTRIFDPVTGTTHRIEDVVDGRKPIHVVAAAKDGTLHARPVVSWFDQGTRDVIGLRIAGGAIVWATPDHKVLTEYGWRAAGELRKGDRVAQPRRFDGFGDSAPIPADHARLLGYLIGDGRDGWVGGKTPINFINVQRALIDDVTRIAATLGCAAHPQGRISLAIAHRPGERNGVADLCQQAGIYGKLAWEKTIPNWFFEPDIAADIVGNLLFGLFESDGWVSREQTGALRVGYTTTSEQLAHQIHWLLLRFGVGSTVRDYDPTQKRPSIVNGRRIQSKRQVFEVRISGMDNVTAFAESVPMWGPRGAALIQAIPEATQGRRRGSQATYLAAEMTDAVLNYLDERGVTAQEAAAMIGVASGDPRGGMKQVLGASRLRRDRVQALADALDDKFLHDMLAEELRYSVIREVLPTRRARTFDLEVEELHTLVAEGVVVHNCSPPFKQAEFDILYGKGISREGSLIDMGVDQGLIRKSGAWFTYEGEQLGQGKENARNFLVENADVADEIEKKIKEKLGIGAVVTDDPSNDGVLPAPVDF
Mtb growth – M. tuberculosis H37Rv growth inhibitors, H37Rv strain (AID 1626); M. tuberculosis H37Rv growth inhibition; higher % means a stronger effect; 220,000 compounds, 0.95% hits; one-dose inhibition, % at 10 µM; IC50 in µM for titrated hits;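 active = confirmed in a dose series; inconclusive = inhibition above 80% but not taken into the dose series; inactive = below 80% or under 30% at every dose of the series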;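 also: bacteria incubated seven days before Alamar blue readout; 0% = bacteria only wells and 100% = bacteria with antibiotic wells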
Arbovirus anti repeat – recorded beside Arbovirus anti, whose call it bears; inhibition, %; measured here: 10K subset replicate screen; many hits read low in the repeat;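 first of two repeat runs on a subset; 0% = infected and 100% = uninfected wells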
The depositor's hits bear a star; i = inactive; ? = inconclusive; nt = not tested or not shown.

SMILES	Mtb betalactam	YopH PTP inh	Arbovirus anti	RecA intein inh	Mtb growth	others
CCOc1ccc(CCNC(=O)COC(=O)c2cccc(OC)c2O)cc1OCC	2.4	nt	10.1	-0.2	5.0%
CCOc1ccccc1N1CCN(C(=O)Nc2ccc(F)c(Cl)c2)CC1	-23.1	-18.8	3.7	0.5	-4.3%
COc1ccc(NS(=O)(=O)c2cccc(C(=O)NNC(=O)COc3ccccc3)c2)cc1	-4.4	nt	nt	1.8	nt
O=C1OCCN1CCN(CN1C(=O)CCC1=O)CN1C(=O)CCC1=O	-1.2	-60.5	-8.2	-2.0	-3.6%
Cc1cccc(C)c1CC(=O)N1CCOCC1	-2.1	nt	nt	0.9	nt
Cc1oc(-c2ccccc2F)nc1CN1CCC(C(=O)NC2CCCc3ccccc32)CC1 (centres undefined)	8.0	-36.3	-0.8	nt	-7.2%
Cc1ccnc(NC(=O)c2ccc(COc3ccc(Cl)cc3)o2)c1	14.3	-39.7	5.5	6.7	nt
CCOc1ccccc1N(CC(=O)Nc1cccnc1)S(=O)(=O)c1ccc(C)cc1	-0.2	nt	-8.0	-0.5	-4.3%
O=C(Nc1cc([N+](=O)[O-])ccc1N1CCCC1)c1ccco1	-1.8	nt	-3.6	-3.1	-4.0%
CC(C)(C)C(=O)OCCNc1nc(-c2ccccc2)nc2ccccc12	-2.4	-18.6	-7.2	1.0	11.6%
CC(C)NS(=O)(=O)c1ccc(OCC(=O)N2CCCC2)c(Cl)c1	-3.3	-2.0	-8.2	-6.6	-2.6%
CC(Sc1nnc(CNC(=O)c2ccco2)n1C)C(=O)Nc1nccs1 (centres undefined)	5.0	nt	nt	-2.5	nt
Cc1cc(C(F)F)nn1CC(=O)N1CCSCC1	-13.1	32.8	4.8	0.4	-3.9%
CN(Cc1ccccc1)C(=O)CCS(=O)(=O)c1ccc2c(c1)NC(=O)CS2	1.2	nt	nt	-1.0	nt
COc1cccc(CNS(=O)(=O)c2ccc(S(=O)(=O)N3CCCC3)cc2)c1	-5.2	nt	6.6	2.9	-6.2%
COc1cc(NS(=O)(=O)c2ccc(NC(=S)NC(=O)c3ccc(F)cc3)cc2)nc(OC)n1	5.8	nt	nt	0.8	nt
CC(Oc1ccc(Br)cc1)C(=O)Nc1cc(S(=O)(=O)N2CCOCC2)ccc1N1CCCC1 (centres undefined)	-11.8	nt	nt	1.7	nt
COc1ccc(OC)c(NC(=O)C2CCN(C(=O)c3cccs3)CC2)c1	-1.2	nt	4.9	-3.1	-0.8%
COc1ccc(CNC(=S)NCc2ccc(F)cc2)cc1	6.6	nt	nt	3.1	nt
CCC1=C(OC(=O)N(CC)CC)N2C(=O)OC(=NCCOC)[C@]2(Cc2ccccc2)[C@H]2C1=CC[C@H]1C(=O)N(C)C(=O)[C@H]12	-3.9	nt	nt	1.2	-13.8%
CC(C)c1cccc(C(C)C)c1NC(=S)Nc1cccc(Cl)c1	1.2	nt	nt	7.3	-2.0%
CCOC(=O)c1ccc(N2C(=O)CC(C(=O)OC)=C2C)cc1	91.4	29.4	1.6	-0.5	59.2%
O=C(Nc1cccc2ccccc12)C1CCN(C(=O)Cc2ccccc2)CC1	-10.8	-1.0	-4.2	-0.2	-3.0%
O=C(NCCc1nnc2ccc(NCC3CCCO3)nn12)c1ccccc1 (centres undefined)	5.1	nt	20.0	2.2	-3.9%
CCn1c(CCNC(=O)c2cccs2)nnc1SCC(=O)Nc1ccc(Cl)cc1	7.3	-12.6	-6.8	nt	-4.9%
O=C(/C=C/C(=O)N1CCc2ccccc2C1)N1CCc2ccccc2C1	-2.7	nt	nt	2.6	0.1%
COc1ccccc1CNCC(=O)Nc1ccc(C#N)cc1	6.9	nt	nt	-1.3	nt
O=C1CC(C(=O)Nc2cccc(Cl)c2)n2ncnc2N1 (centres undefined)	3.1	nt	19.3	-1.2	-12.1%
Cc1ccc(OCCC(=O)OCC(=O)N2c3ccccc3CC2C)cc1 (centres undefined)	98.3	-21.0	1.8	1.8	16.6%
CCN(CC)C(=O)CSc1nc2c(sc(=S)n2-c2ccccc2OC)c(=O)n1-c1ccccc1	0.0	nt	nt	-0.9	nt
Cc1ccc(NC(=O)CSc2nnc3ccccn23)cc1	-1.4	nt	10.7	1.4	2.6%
COCC(C)N=Cc1c(O)[nH]c2ccccc12 (centres undefined)	3.7	-10.6	1.7	-0.3	-2.1%	Arbovirus anti repeat=4.0
O=C(c1ccc(Cl)c(S(=O)(=O)N2CCOCC2)c1)N1CCCCC1	-4.7	nt	-6.7	-0.1	-3.7%
CCOc1ccc(C(=O)NC(=S)Nc2ccccn2)cc1[N+](=O)[O-]	-5.3	-29.1	3.7	4.5	-2.4%
COc1cc(CN2CCN(C(C)C)C(CCO)C2)ccc1OCc1ccccc1 (centres undefined)	-8.1	nt	-18.5	-3.0	3.4%
Cc1cccc(N=C2NC(=O)/C(=C/c3cccnc3)S2)c1	-1.5	nt	nt	4.9	-0.1%
COCC(=O)n1nc(-c2ccc(C)cc2)nc1NCc1ccc(F)cc1	nt	nt	-5.6	nt	9.1%
CCN1CCN(C(=O)CCNC(=O)Cn2cnc3ccccc3c2=O)CC1	2.6	nt	nt	3.2	nt
O=S(=O)(c1ccc(Br)cc1)N1CCC(c2nc3ccccc3[nH]2)CC1	-1.9	nt	nt	2.6	nt
O=C1NC(=O)N(Cc2ccc(F)cc2)C(=O)/C1=C\c1ccc([N+](=O)[O-])s1	99.3	nt	nt	10.2	0.0%
C=CCN1C(=O)c2ccc(C(=O)N(CCOC)c3c(N)n(CCCC)c(=O)[nH]c3=O)cc2C1=O	0.9	nt	nt	2.9	nt
Cc1cc(C(F)F)n2nc(C(=O)Nc3sc4c(c3C#N)CCC(C)C4)nc2n1 (centres undefined)	-2.1	-11.8	4.6	0.0	-1.6%
CC1CCCCN1C(=O)Cn1nnc(-c2cccnc2)n1 (centres undefined)	-3.6	10.0	5.0	-1.8	-9.0%
CCOC(=O)C1CCN(C(=O)c2ccccc2NC(=O)c2ccc(Cl)cc2)CC1	0.1	-8.8	-1.7	1.7	-1.4%
Cc1ccc(C)c(NC(=O)CCc2c(C)nn(-c3ccc(N4CCCCC4)nn3)c2C)c1	4.7	nt	nt	-0.9	nt
CCCN(CC1CC1)C(=O)CSc1ncnc2sc(C)c(C)c12	-15.4	-13.0	-5.3	0.7	6.7%
Cn1cnnc1SCC(=O)c1ccc2c(c1)OCO2	-15.2	-19.6	1.3	-1.8	-2.5%
CC(C)(C)c1ccc(C2=CC(c3ccccc3)n3ncnc3N2)cc1 (centres undefined)	59.1	nt	nt	i	-2.7%
CC(=O)C1=NOC(CNc2ncc(C(F)(F)F)cc2Cl)C1 (centres undefined)	-5.8	nt	-0.5	1.8	0.5%
CCOC(=O)CSc1[nH]c2cc(OC)ccc2c1[N+](=O)[O-]	2.1	nt	-2.9	-22.0	1.3%
Cc1cc2nn(-c3ccccc3)nc2cc1NC(=O)c1cccs1	-3.4	-1.9	2.1	2.6	1.9%
COc1ccc2c(c1)[nH]c(=O)c1sc3ccccc3c12	49.8	-19.1	-10.9	-2.3	10.4%
Cc1ccc(N2C(=O)NC(=O)C(CCc3ccccn3)(Cc3ccc(F)cc3)C2=O)cc1 (centres undefined)	-0.9	nt	0.0	-3.6	8.6%
CCN(CC)S(=O)(=O)c1cccc(C(=O)N[C@H](C(=O)Nc2nc3ccc(F)cc3s2)C(C)C)c1	0.8	-13.5	5.7	-2.1	-0.3%
CC1CN(C(=O)CCC(=O)NCCCN2CCN(Cc3ccccc3)CC2)c2cc(Cl)ccc2O1 (centres undefined)	-4.8	nt	nt	0.1	nt
CC1CC(C)CN(C(=O)c2ccc(N3CC4CC(C3)c3cccc(=O)n3C4)c([N+](=O)[O-])c2)C1 (centres undefined)	-4.2	-17.9	1.6	-3.0	-0.3%
CCOc1ccc(C(=O)Nc2cc(S(=O)(=O)Nc3ccccc3Cl)ccc2N2CCOCC2)cc1	10.2	-5.3	0.6	3.4	2.3%
Cc1nc2c(C(=O)N3CCCCC3)cnn2c(C)c1Cc1ccccc1F	-3.2	-23.0	9.6	nt	3.5%
CC(=O)Nc1cccc(NC(=O)CS(=O)(=O)c2cn(CC(=O)N(C(C)C)C(C)C)c3ccccc23)c1	-11.3	nt	nt	-1.6	nt
CCOc1ccc(NC(=O)CSc2nnc(C)n2CCCOC)cc1	-2.0	-45.2	-5.7	-0.2	-3.5%

Ordered by molecular weight (smallest number first): part of the list above
SMILES	Mtb betalactam	YopH PTP inh	Arbovirus anti	RecA intein inh	Mtb growth	others
CC(=O)C1=NOC(CNc2ncc(C(F)(F)F)cc2Cl)C1 (centres undefined)	-5.8	nt	-0.5	1.8	0.5%
Cc1nc2c(C(=O)N3CCCCC3)cnn2c(C)c1Cc1ccccc1F	-3.2	-23.0	9.6	nt	3.5%
CC(=O)Nc1cccc(NC(=O)CS(=O)(=O)c2cn(CC(=O)N(C(C)C)C(C)C)c3ccccc23)c1	-11.3	nt	nt	-1.6	nt

The list goes on:
SMILES	Mtb betalactam	YopH PTP inh	Arbovirus anti	RecA intein inh	Mtb growth	others
O=[N+]([O-])c1ccc(S(=O)(=O)Nc2ccc(-c3ccc(N4CCOCC4)nn3)cc2)cc1	4.8	nt	nt	-0.8	nt
Cc1nc(-c2nc(CC(=O)NNC(=O)c3ccc(Cl)cc3)cs2)cs1	-4.5	nt	nt	-1.0	2.8%
CCOC(=O)Cn1nc(-c2ccccc2)c2ccccc2c1=O	14.2	-26.3	-10.1	1.3	0.5%
CC(C)C(=O)Nc1nnc(S(=O)(=O)N2CCCc3ccccc32)s1	-4.9	nt	nt	-0.5	nt
S=C(NCCc1ccccc1)Nc1cnc2ccccc2c1	3.2	nt	12.5	3.0	54.0%
CCC(C)(C)n1nnnc1C(c1cc2cc3c(cc2[nH]c1=O)OCO3)N1CCCCC1 (centres undefined)	-6.1	2.0	1.6	nt	nt
O=C(CC1SCCNC1=O)Nc1cccc(C(F)(F)F)c1 (centres undefined)	-3.8	-34.1	-2.9	-0.3	0.6%
CN(CC(=O)N1CC(=O)N(CCc2ccccc2)C(=O)C1)S(=O)(=O)c1cccc2nsnc12	6.7	-28.6	4.1	0.2	-3.3%
COc1ccccc1NC(=O)c1ccc(-c2ccc(Br)cc2)o1	98.5	0.5	-18.2	-5.4	?
COc1cc(NC(=O)c2cc3c(=O)n(C)c4ccccc4c3n2C)cc(OC)c1OC	5.9	-29.2	12.1	0.7	2.2%	Arbovirus anti repeat=-10.8
CCC(C)(C(=O)NC1CCCC1)N(C(=O)CNC(C)=O)c1ccc(C)cc1 (centres undefined)	-4.6	-7.7	6.0	0.6	-5.0%	Arbovirus anti repeat=4.2
c1cc(-c2nsc(-c3ccncc3)n2)ccn1	-9.8	nt	nt	2.2	-3.2%
COC(=O)C1=CN(C(C)C)C=C(C(=O)OC)C1c1cc(Br)c(OC)c(OC)c1	-8.9	-35.3	-9.4	i	-11.7%
O=C(CCC(=O)OCC(=O)c1cccc([N+](=O)[O-])c1)Nc1ccccc1Cl	4.6	15.2	2.6	0.1	-9.8%
Cc1onc(-c2ccccc2Cl)c1C(=O)Nc1ccc(S(=O)(=O)NCC2CCCO2)cc1 (centres undefined)	1.9	7.7	-15.3	-0.3	-2.0%
CCCC(=O)Nc1cccc(NC(=O)c2ccccc2Br)c1	-1.7	-14.7	-6.2	-0.7	-8.9%
Nn1cnc2scc(-c3ccco3)c2c1=O	-4.3	nt	nt	-0.8	nt
COc1cc(S(=O)(=O)N(Cc2cccnc2)Cc2cccc(OC)c2OC)ccc1-n1cnnn1	6.0	nt	nt	2.1	3.6%
CC(=O)Nc1cccc(NC(=O)CSc2nc(C)c(C)c(C)c2C#N)c1	-12.7	-13.4	-0.2	-1.7	1.3%
O=C(NNC(=O)c1ccccc1Br)c1ccc(Cl)cc1	4.1	-47.0	-5.3	-1.2	-10.5%
Cc1ccc(C)c(NC(=O)CSc2c(C)n[nH]c2C)c1	-7.1	nt	-1.2	nt	-0.6%
O=C(COc1ccccc1)Nc1cccc(-c2nc3ccccc3[nH]2)c1	7.7	-15.6	6.4	5.0	9.6%
Cc1onc(-c2ccccc2)c1C(=O)Nc1cccc(C#N)c1	2.2	-22.0	-3.8	nt	-8.7%	Arbovirus anti repeat=-4.8
CCOC(=O)C1(CCCc2ccccc2)CCN(C(=O)CSC)CC1	-0.8	nt	nt	3.5	nt
COc1ccc(-n2c(N)c(C(=O)NCc3ccco3)sc2=S)cc1	-4.6	-11.3	2.2	2.2	3.7%
CN(C)S(=O)(=O)c1ccc(Cl)c(NC(=O)COC(=O)c2ccc(O)cc2)c1	-10.7	nt	2.4	0.9	-6.8%

Some of the compounds tested; count on the stated rates, not on these rows.
